AID504770 – growth inhibitors of E. coli YBA685 in a screen for V. cholerae RctB (chromosome II replication) inhibitors | E. coli YBA685 rctB-dependent plasmid, OD600 growth, 3 h; active compounds read low | z-score (test concentration not listed) | hit rate 0.27% among 130,000 | AID 504770;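 active = z-score under -2 on both plates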;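 note: wells of about 30 µL received 100 nL stock; score is relative to mean and SD of the test wells; the first replicate is given; strong numbers were not always called active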
Ba CapD inh – inhibitors of Bacillus anthracis CapD enzyme; purified CapD enzyme, fluorescence intensity read-out; active compounds read low; some hits fall short of the stated cut; z-score (no concentration beside the values); hit rate 0.23% among 140,000; AID 492967;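 active = z-score under -4 in either of two replicates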;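 note: stock transfer was 100 nL into about 40 µL; score is relative to mean and spread of the plate; one replicate is shown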
* = called active by the depositor; . = no result given.

SMILES	AID504770	Ba CapD inh
COC(=O)c1ccc(COC(=O)c2ccc(-n3cnnn3)cc2)o1	-0.15	.
CCOC(=O)Cc1c(-c2ccccc2)c2cc(C)ccc2[nH]c1=O	-0.45	0.24
O=c1c2ccccc2nc2n1CCCN2	1	60
CCOC(=O)C1=C(C)NC2=C(C(=O)c3ccccc32)C1c1ccc(OCc2ccccc2)cc1 (configuration not stated)	.	-0.32
COc1cc2c(cc1OC)CN(C(=O)c1cc(=O)c3ccccc3o1)CC2	-0.7	.
Cn1ccc(NS(=O)(=O)c2ccc(NS(=O)(=O)c3ccc(Cl)cc3)cc2)n1	.	-0.32
Cc1cccc(OCc2nc(-c3ccc(NC(=O)c4ccco4)cc3)no2)c1C	.	0.01
Cc1ccc(-c2cc(C(F)(F)F)n3nc(C(=O)NCCCN4CCOCC4)c(Cl)c3n2)cc1	.	0.04
Cc1c(C(=O)N(Cc2cccs2)C2CCCC2)sc2nc3n(c(=O)c12)CCCCC3	0	0.48
COc1cc(OC)cc(C(=O)OCCN2C(=O)c3cccc4c(N5CCCCC5)ccc(c34)C2=O)c1	.	0.6
CCOC(=O)c1cc2c(c(CSc3nc4ccccc4c(=O)n3Cc3cccs3)c1)OCOC2	0.05	0.7
O=C1C(=O)N(c2ccc(Br)cn2)C(c2ccc([N+](=O)[O-])cc2)/C1=C(\O)c1ccc(Cl)cc1 (configuration not stated)	.	0.075
CCn1c(SCc2nc3cc(OC)c(OC)cc3c(=O)[nH]2)nc2ccccc21	-0.15	.
CN=C(NO)c1c(Cl)cccc1Cl	-0.55	-0.96
Cc1c(NC(=O)CN(c2cccc(Cl)c2Cl)S(=O)(=O)c2ccccc2)c(=O)n(-c2ccccc2)n1C	.	-0.13

Two compounds picked at random from those above, as already listed:
SMILES	AID504770	Ba CapD inh
CCOC(=O)c1cc2c(c(CSc3nc4ccccc4c(=O)n3Cc3cccs3)c1)OCOC2	0.05	0.7
CCOC(=O)C1=C(C)NC2=C(C(=O)c3ccccc32)C1c1ccc(OCc2ccccc2)cc1 (configuration not stated)	.	-0.32

Other results
SMILES	AID504770	Ba CapD inh
CC(C)n1nccc1NC(=NC1CC1)c1ccccc1	-0.4	.
COc1ccc(-c2nc(NCc3ccccc3)c3ccccc3n2)cc1OC	.	36
Cn1nc(Oc2nc(N3CCCCC3)nc(N3CCCCC3)n2)ccc1=O	-0.05	0.78
CCN(CC)C(=O)CSc1nc(-c2ccco2)cc(C(F)(F)F)c1C#N	-0.45	.
CCOC(=O)N1CCN(C(=O)c2ccc3c(=O)[nH]c4c(C(=O)NC(C)C)sc(=S)n4c3c2)CC1	0.7	-1.3
COc1ccc2c(c1)C1(Nc3ccccc3C(=O)N1c1ccccc1)C(=O)N2 (configuration not stated)	.	0.49
O=C(CN1CCOCC1)Nc1nc(-c2ccc3c(c2)CCN3S(=O)(=O)c2ccccc2)cs1	-0.4	.
O=C(O)CCCC(=O)Nc1ccn(-c2ccccc2)n1	-0.65	0.33
Cc1cccc(C)c1NC(=O)CBr	-0.45	0.73
N#CCC(=O)N(Cc1ccccc1F)C(=O)NC1CCCCC1	.	-0.64
COc1ccccc1-n1c(SC)nc(O)cc1=O	-0.2	0.48
O=C(Cn1c(=O)n(-c2cccc(Cl)c2)c(=O)n1CC(=O)N1CCCCC1)N1CCCCC1	1.5	-0.53
N=C1S/C(=C\c2ccc(-c3ccc(F)cc3F)o2)C(=O)N1c1nccs1	.	0.37
COc1ccc(-c2nc(CN3CCC(C(=O)NC(C)C)CC3)c(C)o2)cc1OC	-0.15	0.065
Cc1ccccc1-n1nnnc1C1(N(C)O)CCCCC1	.	-0.15

Whole records, quoted from the list.
CCN(CC)C(=O)CSc1nc(-c2ccco2)cc(C(F)(F)F)c1C#N reads AID504770: -0.45; Ba CapD inh: .
COc1ccc(-c2nc(NCc3ccccc3)c3ccccc3n2)cc1OC reads AID504770: .; Ba CapD inh: 36

Copied from the listing for reference:
SMILES	AID504770	Ba CapD inh
N#CCC(=O)N(Cc1ccccc1F)C(=O)NC1CCCCC1	.	-0.64
COc1ccccc1-n1c(SC)nc(O)cc1=O	-0.2	0.48

Other compounds.
SMILES	AID504770	Ba CapD inh
CCOc1cccc(=O)c2c(C)[nH]c(C)c12	-0.85	-1.9
CCOC(=O)c1c(C)nc2c(C)cccn12	-0.05	0.39
CSC(SC)=C(C#N)C(=O)C1CC1	-0.75	-1.4
CCS(=O)(=O)c1ccc(O)c(NC(=O)Nc2ccccc2OC)c1	0.05	-0.15
Cc1cc(C(=O)CSc2nc3ccccc3c(=O)n2CC(C)C)c(C)n1-c1nccs1	0.35	.
COc1ccccc1-n1c(CSc2ccccn2)nc2ccccc2c1=O	0.95	0
CSc1ccc(OC(=O)Nc2ccc(Cl)cc2)cc1	-1.8	0.61
NS(=O)(=O)c1ccc(N2C(=O)c3cc([N+](=O)[O-])cc4cc([N+](=O)[O-])cc(c34)C2=O)cc1	.	-1.2
COc1cc(CN2CCC(NC(=O)OCc3ccc(SC(F)(F)F)cc3)C2)cc2c1OCO2 (configuration not stated)	.	-0.53
COC(=O)C1SC/C(=N\O)C1C(=O)OC (configuration not stated)	0.35	0.055
CCc1cccc(CC)c1NC(C)=O	1.4	-0.61
CCN1CCN(C(=O)C2C3CCC(C3=C(C)C)C2C(=O)O)CC1 (configuration not stated)	-0.75	-0.93
CCCCn1c(=O)c(C(=O)Nc2ccc(C)cc2Br)c(O)c2ccccc21	.	-0.26
CCCc1ccc2c(N)c(C(=O)c3ccc(Br)cc3)sc2n1	1.6	-0.48
CC(Sc1nc(N)cc(N)n1)C(=O)Nc1cccc(Cl)c1 (configuration not stated)	-0.55	-0.38
O=C(NC1C/C(=N\O)c2sccc21)C(F)(F)F (configuration not stated)	0	-0.76
O=c1c(C=Nc2cc(Cl)ccc2O)c(O)n(C2CCCCC2)c(=O)n1C1CCCCC1	2.5	2.6
Ic1ccc(-c2ncc3ccccn23)cc1	-1.1	.
O=C(CN(CCO)C(=O)c1ccc(Cl)cc1)Nc1ccc(F)cc1	-0.6	0.12
Cc1cc(Nc2ccc(Cl)cc2)c2ccccc2n1	-0.55	3.9
Nc1ccc(OC(F)(F)C(F)F)c(N)c1	0.9	0.3
CCOC(=O)/C(C#N)=C/c1cn(CCC#N)nc1-c1ccccc1	-1.1	.
Cc1cc(=O)oc2cc(OCC(=O)N(C)C)ccc12	-0.8	70
CCOc1ccc(CC(=O)O)cc1OCC	0.3	0.72
Cc1cc2c(cc1C)C(Nc1ccccc1)=NC(C)(C)C2	-0.2	-0.06
O=C1CSc2ccccc2N1Cc1n[nH]c(=S)n1Cc1ccccc1	-0.4	-0.22
O=C(Nc1ccc(C(=O)O)cc1)/C(=C\c1ccc2c(c1)OCO2)NC(=O)c1ccccc1	.	-0.97
CCCC(=O)c1ccc(N2CCN(CC)CC2)c(F)c1	-0.65	0.07
O=C(COC(=O)c1cccc2ccccc12)c1ccc(F)cc1	0.8	0.12
CCOC(=O)/C(C(=O)Nc1ccccc1Cl)=C1/NC(C)(C)Cc2ccccc21	.	-0.86
COc1ccc(S(=O)(=O)/N=C2/NC(=O)/C(=C\c3cccnc3)S2)cc1	.	-0.56
O=C(CSc1nnc(NC(=O)c2ccccc2Br)s1)Nc1ccccc1F	.	-0.57
Cc1cc(C)c(C)c(S(=O)(=O)N2CCN(c3sc(S(N)(=O)=O)cc3[N+](=O)[O-])CC2)c1C	.	0.35
CN1/C(=C\C=N\NC(=O)CCN2CCCCC2)C(C)(C)c2ccccc21	-0.4	.
CCCN1C(=O)/C(=C/c2ccc(-c3ccc(Br)cc3)o2)NC1=S	2.1	-0.41
O=C(NC1CCCCC1)OCc1cccnc1Sc1ccc(Cl)cc1	.	-0.12
O=C1c2ccc(Br)cc2C(=O)N1C(c1ccccc1)c1ccccc1	0.9	0.34
CCn1c2c(c3cc(C(=O)O)ccc31)CCCC2=O	0.9	4.8
CCC(C)(CC(=O)O)CC(=O)Nc1ccc(NC(C)=O)cc1 (configuration not stated)	-0.35	.
Cn1c(CSCC(=O)Nc2ccccc2)nnc1SCc1ccccc1	-1.1	-0.15
CNc1nc2[nH]c(=O)cc(O)c2s1	-0.35	-0.17
CCOC(=O)c1sc(NC(=O)c2cc3ccccc3oc2=O)c(C(=O)OCC)c1C	.	0.19
CC(=O)NCc1ccccc1Br	.	-0.29
COc1cc(C2C(C#N)=C(N)Oc3cc(C)oc(=O)c32)ccc1OC(=O)N1CCOCC1 (configuration not stated)	.	-0.67
CCC(=Nc1ccccc1)C1=C(O)CCCC1=O	0.1	-0.34
CCCCCC[N+]1(CCO)CCOCC1	-0.4	.
COc1ccc(NS(=O)(=O)c2ccc3oc(Nc4ccc(C)c(F)c4)nc3c2)cc1	0.35	.
COc1ccc(-c2nc(N)n(C(=O)CCc3ccccc3)n2)cc1	-0.35	-0.48
O=C(c1cnc2n(c1=O)CCS2)N(C1CCCCC1)C1CCCCC1	-0.1	.
Cn1c(CCC(=O)OCC(=O)N2CCN(S(=O)(=O)c3ccc(Cl)cc3)CC2)nc(=O)c2ccccc21	-0.65	.
COc1ccc(C(=O)Nc2ccc(S(=O)(=O)N3CCCCC3c3cccnc3)cc2)cc1OC (configuration not stated)	-0.85	.
Cc1cc(N/C=C2/CCCCC2=O)no1	0.5	.
COc1ccc2[nH]cc(CCN)c2c1	-0.8	0.65
Nc1ccccc1C(=O)NC1CCCCNC1=O (configuration not stated)	-0.2	124
Nc1cc(=O)[nH]c(SCC(=O)Nc2ccc(S(=O)(=O)N3CCCC3)cc2)n1	0.3	.
CC1C(=O)CCN(CCO)C1C (configuration not stated)	0.2	-0.14
CN(Cc1ccccc1)C(=O)CSc1nc2c(c(C(F)(F)F)n1)CCc1ccccc1-2	0.25	0.02
Cc1csc(SCc2ccccc2C(=O)O)n1	-0.6	.
CC(=O)Nc1ccc(NC(=O)COCC(=O)O)cc1	-0.05	0.69
CC(C)[C@H](NS(=O)(=O)c1ccc2c(c1)OCCO2)C(=O)Nc1ccccc1	-0.1	.

3 compounds out of the list, ordered by molecular weight, rising:
SMILES	AID504770	Ba CapD inh
O=C(c1cnc2n(c1=O)CCS2)N(C1CCCCC1)C1CCCCC1	-0.1	.
CC(C)[C@H](NS(=O)(=O)c1ccc2c(c1)OCCO2)C(=O)Nc1ccccc1	-0.1	.
CN(Cc1ccccc1)C(=O)CSc1nc2c(c(C(F)(F)F)n1)CCc1ccccc1-2	0.25	0.02

The listing continues.
SMILES	AID504770	Ba CapD inh
CN(C)c1nc(N)c(C#N)c(CC#N)c1C#N	0.5	.
CC(=O)N(c1ccccc1)C(C)C1CC1 (configuration not stated)	-0.75	0.03
CN(C)C(=O)c1ccc(-c2nc(-c3ccc(Cl)cc3Cl)cs2)cc1	.	3.1
COc1ccc(C(=O)Nc2nc(-c3ccncc3)cs2)cc1	0.85	-0.48
COc1cccc(C(c2nnnn2CCC(C)C)N2CCN(c3cccc(C)c3C)CC2)c1OC (configuration not stated)	0.05	.
CNC(=O)c1c(-c2ccccc2)oc2ccc(O)cc12	-0.75	1.9
CC(C)NS(=O)(=O)c1ccc(OCC(=O)N(C)Cc2ccccc2)cc1	0.9	0.41
Cc1ccn2cc(C(C)(C)C)nc2c1	-0.65	15
CC1CCCCN1C(=O)/C=C/c1ccccc1 (configuration not stated)	1.5	-0.02
CSc1ncc(C#N)c(N)n1	.	6.2
O=C1c2ccccc2NC(c2ccc(O)cc2)N1c1ccccc1 (configuration not stated)	0.35	64
Cc1onc(-c2ccccc2Cl)c1C(=O)c1ccccc1	-1.2	-0.71
O=C(Cc1ccccc1)N1CCN(c2cccc(C(F)(F)F)c2)CC1	-0.75	.
Cc1ccc(C(=O)CBr)cc1C	-1.1	-0.025
COc1ccc2c(c1)CCc1c(C(=O)NC(C)c3ccccc3)noc1-2 (configuration not stated)	-0.4	0.25
CCOC(=O)c1c(C)[nH]c(C(=O)Nc2ccc(C)cc2)c1C	-0.15	.
CN(CCNc1ncnc2nc[nH]c12)Cc1ccccc1	-1.1	0.17
N#CC1=C(C(N)=O)N=C(c2ccccc2)C(c2ccccc2)N1 (configuration not stated)	1.1	-1.4
COc1ccc(OC)c(C(c2c(C)n(C)n(-c3ccccc3)c2=O)c2c(C)n(C)n(-c3ccccc3)c2=O)c1	.	-0.24
CC1=N/C(=C\c2ccc3ccccc3c2)C(=O)O1	0.65	0.24
CCOC(=O)C1=C(C)N=c2s/c(=C\c3cc(OC)c(OC)c(OC)c3)c(=O)n2C1c1ccc2c(c1)OCO2 (configuration not stated)	.	-0.38
CCOc1ccc(C2=Nn3cnnc3SC2)cc1	.	-0.2
COC(=O)c1sc(N)c(C(=O)OC)c1CC#N	-1.3	.
CC1=C(C(=O)NCCN(C)C)C2(CCN(Cc3ccccc3)CC2)OC1=O	0.25	-0.075
O=C(O)CNC(=O)COc1cccc(Br)c1	1.8	-0.47
COc1ccc(OC)c(-c2ccn[nH]2)c1OCc1ccccc1	-0.65	-0.28
Cn1c(NCCCO)nc2c(c1=O)C1(CCCCC1)Cc1ccccc1-2	-0.5	65
COc1ccc(Br)cc1/C=C/C(=O)O	-0.45	-0.065
CN(C(=O)CSc1ncnc2sccc12)C1CCCCC1	-1.4	.
COc1ccccc1NCc1cccn1-c1nnc(N2CCCC2)s1	1.1	0.83
CCc1ccc(N2C(=O)C3C4c5ccccc5C(C=O)(c5ccccc54)C3C2=O)cc1 (configuration not stated)	.	-0.74
O=C(c1ccccc1)N1CCc2c([nH]c3ccccc23)C1c1ccc2c(c1)OCO2 (configuration not stated)	.	-0.36
COc1cccc(CN2CCC(NC(=O)CCc3ccc4c(c3)OCO4)C2)c1[N+](=O)[O-] (configuration not stated)	.	0.42
